NPYLR7 agonist – mosquito NPYLR7 agonism; HEK293T NPYLR7/Galpha15, GCaMP6s calcium fluorescence; activation, % at 10 µM; 270,000 tested, 0.15% active; in the data active = activation above about 40%;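 also: 0% = vehicle and 100% = reference agonist at the receptor; some compounds past the cut are filed as inactive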
NPYLR7 agonist max-min – also measured in NPYLR7 agonist; calls as there; activation, %; measured here: Max-Min RFU normalised activation; some inactives read as strong as hits;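 span of the calcium signal over five minutes; 0% = vehicle and 100% = native peptide agonist; compound fluorescence can raise it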
* hit, by the source's call; & = joins results of further samples. Only part of the results is shown. The share of hits here may be higher or lower than overall.

smiles,NPYLR7 agonist,NPYLR7 agonist max-min
COc1ccc2c(c1)OC(C)CN(CC(=O)NCC(c1ccncc1)N1CCOCC1)C2 (stereo unspecified),-2,-10
CNS(=O)(=O)c1ccc(Nc2ccc(F)cc2)c([N+](=O)[O-])c1,5,7
C=CCN(CC=C)C(=O)COC(=O)Cn1cc(Br)c(=O)[nH]c1=O,3,6
NC(=O)NN=Cc1sc(N2CCCCC2)nc1-c1cccs1,1,2
Cc1cccc2sc(N(CCCN(C)C)C(=O)c3ccccc3Cl)nc12,2,2
CC(C)(C)NC(=O)c1cnc(OCC(F)(F)F)c(Cl)c1,1,1
O=C(NCCSc1ccc(Cl)cc1)c1ccc2c(c1)S(=O)(=O)c1ccccc1C2=O,-1,0
COCOc1cccc(CN2CCC2(C)C(=O)Nc2cc(OC)ccc2OC)c1 (stereo unspecified),-2,-3
Cc1ccsc1/C=C/C1=CC(=C(C#N)C#N)CC(C)(C)C1,-1,-2
CC1CCc2c(sc3c2c2nncn2c2nncn32)C1 (stereo unspecified),1,0
CCCC1(C2CCN(C(=O)c3ccc(F)cc3F)CC2)NC(=O)N(CCc2ccccn2)C1=O (stereo unspecified),22,7
COc1ccc(C(=O)N(Cc2c(-c3cccc(C)c3)noc2N2CCOCC2)C2CC2)cc1,2,7
COc1cccc(Cc2nsc(N(CCC(=O)N3CCC(Cc4ccccc4)CC3)Cc3ccco3)n2)c1,-11,-14
Cc1cccc(CC(=O)NCCOc2ccc(-c3ccccc3)nn2)c1,0,-1
N#Cc1ccc(Cn2cc(-n3cccc3)cn2)cc1,10,4
Cc1ccccc1CCC(=O)N(C)CC1(CO)CCOCC1,4,-6
CC=CC=CC(=O)Nc1ccc(OCC)c(S(=O)(=O)N2CCOCC2)c1,-8,-10
CN(C)c1ccc(CN2CCC(C(=O)NC(c3ccc4c(c3)OCO4)c3ccccn3)CC2)cc1 (stereo unspecified),-7,-17
FC(F)(F)c1cccc(OCc2nn[nH]n2)c1,-3,-4
S=c1[nH]nc(-c2cccs2)n1CC1CCCO1 (stereo unspecified),8,7
C#CCSc1nc(-c2cccs2)ccc1C#N,10,6
O=C(NCc1ccc(F)cc1)c1cccc(Nc2c(Oc3ccc(Cl)cc3)cnn(-c3cccc(Cl)c3)c2=O)c1,12,8
CC(=O)c1c(C)n([O-])c2cc(Cl)c(Cl)cc2[n+]1=O,2,-1
O=S(=O)(N1CCOCC1)N1CCCCC1c1cccc(F)c1 (stereo unspecified),4,1
Cc1ncsc1C(=O)N(c1ccc(F)cc1Cl)C(C)C,-1,1
COc1cccc(S(=O)(=O)N2CCC(c3cn(Cc4ccc(C(F)(F)F)cc4)c4ccccc34)CC2)c1,14,10
CN(C)C(=O)c1ccc2c(c1)N(C)C(CC(=O)NCc1cc(C3CC3)n[nH]1)CO2 (stereo unspecified),0,-3
N#Cc1c(NC(=O)CC(=O)Nc2sc3c(c2C#N)CCCCC3)sc2c1CCCCC2,-2,-5
COCc1c(Br)c(C)nc(OCC(=O)N/N=C\c2ccc(-c3ccccc3[N+](=O)[O-])o2)c1C#N,6,8
COc1cc(N2CCCC2)c(OC)cc1CO,-1,-2
CN1C(=O)C2(CCC2)ON=C1c1cccc(Cl)c1,9,4
Cc1[nH]cnc1-c1nccn1CC(C)Oc1cccnc1 (stereo unspecified),4,1
Cc1ccc(-n2ncc3c(=O)n(NC(=O)Cc4ccc(F)cc4)cnc32)cc1,-1,-1
CCCS(=O)(=O)N1CCN(c2nc(C)nc(CC)c2Cc2cccc(C)c2)CC1,4,14
Cc1ccc(C)c(-c2csc3nc(CN4CCCCC4C)[nH]c(=O)c23)c1 (stereo unspecified),-6,-3
COC(=O)NCCC(=O)NCCc1ccc(F)c(Br)c1,-3,-6
Cc1ccc(NC(=O)CC2Cn3ncc(-c4ccccc4)c3NC2=O)c(C)c1 (stereo unspecified),-1,-1
COC(=O)[C@@H]1C[C@H](NC(=O)Cc2ccc(OC)c(C)c2)CN1C,-1,0
Cc1csc(NC(=O)Nc2c[nH]c3ccccc23)n1,1,-6
CCSc1nc(C)c(CC)c(=O)[nH]1,0,3
C=CCNc1ccccc1C(=O)N1CCC[C@@H]1C(N)=O,19,6
CCOCCn1cnc(-c2ccccc2)c1-c1ccc(-c2ccn[nH]2)s1,13,9
S=c1[nH]nc(-c2ccncc2)n1C1CC1,5,2
CC(=O)c1ccc(NC(=O)C2CCCN(c3ccc(-c4cccs4)nn3)C2)cc1 (stereo unspecified),-4,-9
O=S(=O)(C=Cc1ccccc1)NC12CC3CC(CC(C3)C1)C2,2,4
COc1ccc(-n2c(CCC(=O)N3CCc4ccccc4C3)cc3c2-c2ccccc2CC3)cc1,23,11
Cc1nn(S(=O)(=O)c2ccc(OC(C)C)cc2)c(C)c1S(=O)(=O)N1CCC(C)CC1,6,2
CCCNC(=O)COc1coc(CN2CCN(c3ccccc3OC)CC2)cc1=O,10,10
S=c1[nH]nc(CSc2nc3ccccc3s2)o1,0,-1
c1cc2c(cc1SCc1nnc(-c3cc4c(s3)CCCC4)o1)OCCO2,-2,-3

The results go on:
smiles,NPYLR7 agonist,NPYLR7 agonist max-min
COC(=O)[C@H]1C[C@@H](O)CCN1CCOCc1ccccc1,-5,-10
CC(C)CN(Cc1ccsc1)C(=O)c1ccc(-n2cnnc2)cc1,-3,-3
CN(Cc1cccnc1)C(Cc1ccccc1)C1CCN(C(=O)C23CC4CC(CC(C4)C2)C3)CC1 (stereo unspecified),16,7
COc1cccc(C2C(=C(O)c3ccc(Cl)cc3)C(=O)C(=O)N2CCCn2ccnc2)c1OC (stereo unspecified),3,1
CC1CC(N2CCc3c(ncn3C3CC3)C2)C(=O)O1 (stereo unspecified),10,8
NC/C=C/C(=O)O,1&-8,-38&-13
CC(C)(C)n1ncc2c(=O)n(NC(=O)CC3CCCC3)cnc21,2,1
CC(C)(C)c1cc2nc(C(=O)NCCN3CCCC3)cc(-c3ccccc3F)n2n1,16,12
Cc1ccc2nc(CN(C)C(=O)c3ccc(-n4cnnn4)cc3)[nH]c2c1,2,-2
C=CCOC(=O)COc1cc2oc(=O)c3c(c2cc1Cl)CCC3,11,4
COc1ccc(CCN(C)C(=O)c2cc(-c3ccccc3F)nn2-c2ccc(C)cc2C)cc1OC,14,14
Cc1noc(CSc2nc3sccc3c(=O)[nH]2)n1,4,2
Cc1[nH]n(-c2nc(-c3ccccc3)cs2)c(=O)c1N=Nc1cccc(C(F)(F)F)c1,-5,-11
CC(C)(C)OC(=O)NCCNC(=O)C1(c2ccc(Br)cc2)CC1,5,3
CC(C)CS(=O)(=O)NC(=O)c1ccc2ccccc2n1,5,1
Fc1ccc(N2CCC(CNCc3cccc4c3OCO4)C2)cc1F (stereo unspecified),5,8
CCOC(=O)c1cnc(-c2ccc(OC)cc2)nc1NCCC1CCCN1C (stereo unspecified),-3,-8
CNc1nc(CNC(=O)Nc2nnc(C(F)F)s2)cs1,6,6
O=c1cc(-c2ccccc2)ncn1Cc1ccccc1,-19,-18
O=C(O)c1cccnc1CN1CCN(c2ccccc2-c2ccccc2)CC1,-4,-10
Cn1cc(NC(=O)CCOc2ccc(Cl)c(Cl)c2)cn1,-2,-3
CC(NC(=O)C1CCN(S(=O)(=O)c2cc(C(N)=O)n(C)c2)CC1)c1ccc(Cl)cc1 (stereo unspecified),8,6
COc1ccc(C2=NN(C(=O)CN3CCCC3)C(c3ccccc3F)C2)cc1 (stereo unspecified),2,5
CN1CCN(n2c3c(c(SCC(N)=O)nc2=O)CCC3)CC1,-3,-9
CC(=O)c1ccc(N2CCN(Cn3ncn(-c4cccc(Cl)c4)c3=S)CC2)c(F)c1,4,2
COc1ccccc1NC(=O)c1c(NC(=O)Cc2ccccc2)sc2c1CCCC2,-4,-3
CNC(=O)Cn1ccc(-c2cccs2)n1,3,3
Cc1cccc(N2CCN(C(=O)NCC(c3cccs3)N3CCC(C)CC3)CC2)c1 (stereo unspecified),1,19
COCCN(Cc1ccc(OC)cc1)c1c(C)nc2ccc(C(=O)N3CCCC(C(N)=O)C3)cn12 (stereo unspecified),-5,-10
NS(=O)(=O)c1ccc(NC(=O)CCC(=O)c2ccc(F)cc2)cc1,5,3
O=C(CC1SC(=O)NC1=O)Oc1ccc(/C=C2\SC(=O)NC2=S)cc1 (stereo unspecified),158*,131*
OC12CC3C4CC5C3C1C(Br)(Br)C5C42 (stereo unspecified),4,2
Cc1cc(C)c(-c2c(-c3ccccc3)ncn2CCCO)c(-n2cccn2)c1,34,15
CC(=O)c1c(O)cc(C(C)C)n(-c2ccccc2)c1=O,0,5
CN(C(=O)c1cccc2c1OCC2)C1Cc2ccccc2C1,0,-2
O=C(NCCN1CCCCC1CO)c1cccc(OC2CCN(C(=O)C3CC3)CC2)c1 (stereo unspecified),11,3
COc1ccc(C2=NN(C(=O)CN3CCN(Cc4ccccc4)CC3)C(c3cc(C)ccc3C)C2)cc1 (stereo unspecified),1,3
Cc1ccc(C)c(OC(C)C(=O)NCCCc2nn[nH]n2)c1 (stereo unspecified),14,0
O=C1CC(n2c(O)c(C=C3C=Nc4ccccc43)sc2=S)C(=O)N1c1ccc(Cl)cc1 (stereo unspecified),-5,-10
COC(=O)N1CCCN(C(=O)Nc2c(C)cc(C)cc2C)CC1,19,18
COCCNCc1ccc(OS(=O)(=O)c2ccc(F)cc2)cc1,-1,-2
COc1ccccc1C(=O)N(CC(=O)N1CCc2sccc2C1COc1cccc(F)c1)CC1CC1 (stereo unspecified),-3,4
CCOC(=O)C1=C(COC(=O)Cc2ccsc2)NC(=O)NC1C (stereo unspecified),1,2
CCS(=O)(=O)N1CCN(C(=O)CC2C(=O)NCCN2Cc2ccccc2)CC1 (stereo unspecified),5,2
Cc1noc(C)c1CCCNC(=O)c1ccc(N2CCC[C@H]2CO)nc1,0,-2
Cc1ccc(C)c(NC(=O)CN2c3ncccc3NC(=O)C2C)c1 (stereo unspecified),9,14
Cc1cc(C(F)(F)F)c(C#N)c(SC2CCCCNC2=O)n1 (stereo unspecified),10,5
Cc1ccc2nc(-c3cccc(Cl)c3)c(NC(=O)CCC3CCCC3)n2c1,-3,5
COc1ccc(C(=O)N(C)CC2CCN(CCc3ccc(Cl)cc3)CC2)c(OC)n1,9,3
COCCN=c1scc(C)n1N=Cc1c[nH]c2ccc(Br)cc12,3,2

Pulled by compound from the list above:
smiles,NPYLR7 agonist,NPYLR7 agonist max-min
O=C(NCCN1CCCCC1CO)c1cccc(OC2CCN(C(=O)C3CC3)CC2)c1 (stereo unspecified),11,3
COCCN=c1scc(C)n1N=Cc1c[nH]c2ccc(Br)cc12,3,2
CC(=O)c1c(O)cc(C(C)C)n(-c2ccccc2)c1=O,0,5

Next results follow:
smiles,NPYLR7 agonist,NPYLR7 agonist max-min
CCCC(NC(=O)CN(C)C(C)C)c1cccc(C(F)(F)F)c1 (stereo unspecified),18,15
COc1ccc(C2CC(=O)c3cn4nc(SC)nc4nc3C2)cc1 (stereo unspecified),-3,-1
Cc1nc2ccccn2c1P(=O)(N1CCCCC1)N1CCCCC1,2&2,-3&-1
C=CCNc1nc(OC(C(F)(F)F)C(F)(F)F)nc(N2CCOCC2)n1,-2,-10
CC(C)c1nnc2c3c4c(sc3ncn12)CCCC4,2,0
COc1ccc(C(=O)N2C(C(=O)NC3CC3)COC23CCN(C(=O)CC(C)C)CC3)cc1 (stereo unspecified),-1,3
Cc1ccccc1C(C)(C)CNC(=O)C(=O)Nc1ccnc(C(=O)N(C)C)c1,0,0
CCOC(=O)CSc1ccc2nnc(CCNC(=O)c3ccc(C)cc3)n2n1,-15,-19
COc1cccc(C2=Nc3nnnn3C(c3cc(OC)ccc3OC)C2)c1 (stereo unspecified),9,6
COc1ccc(-n2nc(C(=O)O)c(=O)n(Cc3cccc(OC)c3)c2=O)cc1,25,37
CCN(CC)c1onc(-c2ccccc2)c1CN(Cc1ccc(F)cc1)C(=O)C1CC1,3,29
CCNC(=O)C12CCC(C)(C(=O)C1)C2(C)C (stereo unspecified),-2,12
C=CCNC(=S)N1CCc2cc(OC)c(OC)cc2C1CNC(=O)C1CCCC1 (stereo unspecified),11,23
CCn1c(SCC(=O)c2ccc(OC)cc2)nnc1-c1ccco1,13,6
COc1cccc(CN(C)Cc2noc(C3CCC3)n2)c1O,13,-2
CCc1ccc(NS(=O)(=O)c2c[nH]c(=O)[nH]c2=O)cc1,-12,-18
Nc1nc(SCC(=O)NCc2ccco2)n[nH]1,1,-1
CCCCCCSc1nc2c(c(=O)[nH]c(=O)n2C)n1CCC(C)C,-1,30
C=CC(C1=CC(=O)C=CC1=O)c1ccc(O)cc1 (stereo unspecified),1,0
CN(C)CCCN(C(=O)c1ccc(Br)s1)c1nc2cc3c(cc2s1)OCO3,2,0
CN(Cc1ccccc1)c1cc(Cl)nc(SCc2cccc(C(=O)NCc3cccc(C(F)(F)F)c3)c2)n1,18,17
O=C1O[C@@H]2CN(C34CC5CC(CC(C5)C3)C4)C[C@@H]2N1CCN1CCCCC1,2,-1

One compound at a time, as listed above. Values in the order: NPYLR7 agonist | NPYLR7 agonist max-min
COc1ccc(C(=O)N2C(C(=O)NC3CC3)COC23CCN(C(=O)CC(C)C)CC3)cc1 (stereo unspecified) as listed: -1 | 3
Cc1ccccc1C(C)(C)CNC(=O)C(=O)Nc1ccnc(C(=O)N(C)C)c1 as listed: 0 | 0
C=CCNc1nc(OC(C(F)(F)F)C(F)(F)F)nc(N2CCOCC2)n1 as listed: -2 | -10
